A1 inhib – inducers of caspase activity in MEF A1-2A-BIM cells, primary screen, A1 inhibitor project, cell-based, CaspaseGlo luminescence. caspase-Glo luminescence, 3 h; percent of clofoctol signal, DMSO as zero. caspase activation, % (concentration not given with the values). 21,000 compounds, 0.51% hits;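 active = most replicate scores above 10, or exactly half above 10 with mean activity above 10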;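 also: effector caspase 3 and 7 activity cleaving a DEVD luciferin substrate; 50 nL library stock added to about 30 µL; numbers are from one replicate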
BJeLR viability – BJeLR cell viability loss, primary screen, luminescence, CellTiterGlo ATP. AID 2275, 2010. BJeLR fibroblasts viability, 48 h; HRASV12, hTERT and SV40 LT/ST transformed. viability loss activity score, % (test concentration not listed). 30,000 compounds, 0.64% hits; in the data active = viability loss activity score above about 50%; about a fifth of its hits are not listed in these tables;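 also: higher score means fewer live cells and less ATP luminescence; stock transfer was 50 or 100 nL into about 30 µL; 0% = vehicle wells and 100% = a reference killing control; one replicate is shown; the record names a cut of 85%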
* = called active by the depositor; nt = not tested or not shown.

cpd	molecule	A1 inhib	BJeLR viability
1	O=C1C(=O)N(c2ccccn2)C(c2ccccc2)C1C(=O)c1cccs1 (stereo unspecified)	-0.3	-1.9
2	Cc1cc(C)c(S(=O)(=O)NC(C)C2C3CC4CC(C3)CC2C4)c(C)c1 (stereo unspecified)	-1.0	0.3
3	O=C1C(=O)N(CCCn2ccnc2)C(c2cccc(Br)c2)C1C(=O)c1ccccc1 (stereo unspecified)	-0.3	-1.0
4	COC(=O)c1ccc(-c2ccco2)n1Cc1nc(-c2ccccc2F)oc1C	1.9	1.8
5	O=C1c2ccccc2C(=O)N1CCCN1CCN(Cc2c(F)cccc2Cl)CC1	nt	0.2
6	COc1ccc(CN(C)C[C@@H]2Oc3ccc(NS(=O)(=O)c4cccs4)cc3C(=O)N([C@H](C)CO)C[C@@H]2C)cc1	-0.7	-0.4
7	C[C@@H]1CN([C@H](C)CO)C(=O)c2cccc(NS(=O)(=O)c3ccc(Cl)cc3)c2O[C@H]1CN(C)S(=O)(=O)c1cn(C)cn1	nt	-2.1
8	CC(C)(C)N(Cc1ccccc1)C(=O)c1cccs1	0.1	0.5
9	O=C(NCC(c1cccnc1)N1CCOCC1)c1ccco1 (stereo unspecified)	nt	-7.6
10	C=CCn1c(SCC(=O)O)nnc1-c1sc2ccccc2c1Cl	0.1	-2.4
11	Cc1ccc(S(=O)(=O)Nc2ccccc2/C(O)=C(/C#N)c2nc3ccccc3n2C)cc1	-0.5	-0.6
12	CCOC(=O)c1cc(CC)sc1/N=C/C1C(=O)c2ccccc2C1=O	1.0	-0.3
13	COc1ccc(CN(C)C[C@H]2Oc3ccc(NS(=O)(=O)c4ccc(Cl)cc4)cc3C(=O)N([C@@H](C)CO)C[C@@H]2C)cc1	0.2	-3.5
14	O=C(NCCc1csc2nc(-c3ccccc3)nn12)c1cccs1	0.7	1.2
15	Cc1ccc(S(=O)(=O)Nc2ccc3c(c2)C(=O)N([C@H](C)CO)C[C@@H](C)[C@H](CN(C)Cc2ccc(Cl)c(Cl)c2)O3)cc1	0.0	6.3
16	C[C@H]1CN([C@@H](C)CO)C(=O)c2cc(N(C)C)ccc2O[C@H]1CN(C)Cc1ccccc1	0.1	3.5
17	C[C@@H]1CN([C@@H](C)CO)C(=O)c2cc(NC(=O)Nc3ccc4c(c3)OCO4)ccc2O[C@@H]1CN(C)S(=O)(=O)c1ccc(Cl)cc1	0.1	-0.6
18	C[C@H](CO)N1C[C@H](C)[C@H](CN(C)Cc2ccc(C(=O)O)cc2)Oc2c(NC(=O)c3ccc(-c4nccs4)cc3)cccc2C1=O	nt	-1.1
19	CN=c1scc(C)n1/N=C/c1c(Cl)cccc1Cl	0.1	4.9
20	O=C(CCCn1sc2ccccc2c1=O)NCCc1ccccc1	-0.5	-1.9
21	C[C@H]1CN([C@@H](C)CO)C(=O)c2cccc(NS(=O)(=O)c3cn(C)cn3)c2O[C@@H]1CN(C)S(=O)(=O)c1cccs1	nt	-10.0
22	C[C@@H]1CN([C@@H](C)CO)C(=O)c2cc(NC(=O)c3ccncc3)ccc2O[C@H]1CN(C)S(C)(=O)=O	-0.8	-1.8
23	O=C(COc1ncnc2cc(Cl)ccc12)c1ccc(F)cc1	0.7	-2.9
24	CCC(C)c1ccc(NC(=O)c2cc3ccccc3o2)cc1 (stereo unspecified)	-3.2	6.7
25	CN(C)c1c(F)cc(C(=O)NC(=O)NC2=NCCS2)cc1F	-1.3	-1.6
26	Cc1noc(C)c1NC(=O)Nc1cccc2c1O[C@@H](CN(C)Cc1ccc(Oc3ccccc3)cc1)[C@@H](C)CN([C@H](C)CO)C2=O	nt	-1.5
27	Cc1ccc(S(=O)(=O)N(C)C[C@H]2Oc3c(NS(C)(=O)=O)cccc3C(=O)N([C@@H](C)CO)C[C@@H]2C)cc1	nt	2.9
28	C[C@@H]1CN([C@@H](C)CO)C(=O)c2cccc(NC(=O)c3nc4ccccc4s3)c2O[C@@H]1CN(C)C(=O)Nc1ccc(F)cc1	nt	9.8
29	C[C@@H]1CN([C@@H](C)CO)C(=O)c2cc(NS(C)(=O)=O)ccc2O[C@H]1CN(C)C(=O)NC1CCCCC1	0.3	-1.7
30	S=c1[nH]ccn1CCc1ccccc1	-0.3	-4.6

A second format for five compounds above.
Below each compound: A1 inhib	BJeLR viability
(23) O=C(COc1ncnc2cc(Cl)ccc12)c1ccc(F)cc1
  0.7	-2.9
(24) CCC(C)c1ccc(NC(=O)c2cc3ccccc3o2)cc1 (stereo unspecified)
  -3.2	6.7
(25) CN(C)c1c(F)cc(C(=O)NC(=O)NC2=NCCS2)cc1F
  -1.3	-1.6
(26) Cc1noc(C)c1NC(=O)Nc1cccc2c1O[C@@H](CN(C)Cc1ccc(Oc3ccccc3)cc1)[C@@H](C)CN([C@H](C)CO)C2=O
  nt	-1.5
(27) Cc1ccc(S(=O)(=O)N(C)C[C@H]2Oc3c(NS(C)(=O)=O)cccc3C(=O)N([C@@H](C)CO)C[C@@H]2C)cc1
  nt	2.9

Structural class, the compounds so far with an aryl methoxy group
cpd	molecule	A1 inhib	BJeLR viability
6	COc1ccc(CN(C)C[C@@H]2Oc3ccc(NS(=O)(=O)c4cccs4)cc3C(=O)N([C@H](C)CO)C[C@@H]2C)cc1	-0.7	-0.4
13	COc1ccc(CN(C)C[C@H]2Oc3ccc(NS(=O)(=O)c4ccc(Cl)cc4)cc3C(=O)N([C@@H](C)CO)C[C@@H]2C)cc1	0.2	-3.5

Next part:
cpd	molecule	A1 inhib	BJeLR viability
31	CCOc1ccc2nc(SCc3nc4ccccc4[nH]3)sc2c1	-5.0	6.4
32	COc1ccc(NC(=O)Nc2ccc3c(c2)C(=O)N([C@H](C)CO)C[C@@H](C)[C@H](CN(C)S(=O)(=O)c2ccccc2)O3)cc1	0.3	0.4
33	Cc1ccccc1NC(=O)CCC(=O)OC1CCC(C(C)(C)C)CC1 (stereo unspecified)	-1.3	9.8
34	C[C@@H]1CN([C@H](C)CO)C(=O)c2cccc(NC(=O)C3CCOCC3)c2O[C@@H]1CN(C)CC1CCCCC1	nt	-2.2
35	CN(Cc1ccccc1)C(=O)c1cccc(C(=O)N(C)Cc2ccccc2)c1	-0.7	-0.5
36	C[C@@H]1CN([C@H](C)CO)C(=O)c2cc(NC(=O)C3CC3)ccc2O[C@H]1CN(C)C(=O)NC1CCCCC1	-0.4	-0.6
37	Cc1ccc(NC(=O)Nc2cccs2)cc1	-8.4	3.2
38	Cc1cccc(NC(=O)CSC2=C(C#N)C(c3ccco3)C3=C(CCCC3=O)N2)c1 (stereo unspecified)	-0.3	-6.9
39	COc1ccc(CN(C)C[C@@H]2Oc3ccc(NC(=O)Nc4ccc(OC)cc4)cc3C(=O)N([C@@H](C)CO)C[C@H]2C)cc1	-0.2	0.2
40	CC(C)NC(=O)Nc1ccc2c(c1)C(=O)N([C@@H](C)CO)C[C@@H](C)[C@H](CN(C)Cc1ccc(C(=O)O)cc1)O2	0.1	1.2
41	FC(F)(F)c1nnc(Nc2cccnc2)s1	-0.2	-1.6
42	S=C1NCN(C2CCCCC2)CN1	-0.1	1.8
43	COc1ccc(C2=CC(c3ccccc3)c3ccccc3O2)cc1OC (stereo unspecified)	-1.1	-6.3
44	COc1ccc(NC(=O)N(C)C[C@@H]2Oc3ccc(NS(=O)(=O)c4cn(C)cn4)cc3C(=O)N([C@@H](C)CO)C[C@H]2C)cc1	0.5	3.8
45	Cc1ccccc1Cc1c(C)nc2c(C(=O)N3CCOCC3)cnn2c1C	1.2	2.8
46	COc1ccc(C(=O)NCC2OCCc3ccccc32)cc1 (stereo unspecified)	-0.2	4.3
47	C[C@@H]1CN([C@@H](C)CO)C(=O)c2cc(NC(=O)C3CC3)ccc2O[C@@H]1CN(C)S(=O)(=O)c1ccc(F)cc1	-0.8	2.1
48	CCOC(=O)C1C2C=CC3(CN(C(C)C)C(=O)C13)O2 (stereo unspecified)	nt	9.2
49	Cc1cc(C)cc(NC(=O)CSc2ccc3nnc(-c4cccs4)n3n2)c1	1.4	-6.5
50	COc1cccc(C(=O)N2CCCCC2C)c1 (stereo unspecified)	2.1	-2.1
51	C[C@@H]1CN([C@H](C)CO)C(=O)c2cccc(NS(=O)(=O)c3ccc(Cl)cc3)c2O[C@H]1CN(C)S(=O)(=O)c1ccc(F)cc1	nt	2.5
52	COc1ccc(NC(=O)Nc2ccc3c(c2)C(=O)OC3)cc1	-0.2	6.1
53	C[C@@H]1CN([C@H](C)CO)C(=O)c2cc(NC(=O)NC3CCCCC3)ccc2O[C@H]1CN(C)S(C)(=O)=O	0.1	0.9
54	COc1ccc(S(=O)(=O)N(C)C[C@@H]2Oc3ccc(NC(=O)CCCN(C)C)cc3C(=O)N([C@H](C)CO)C[C@@H]2C)cc1	0.1	0.1
55	COc1ccc(OC)c(S(=O)(=O)N2CC(C)OC(C)C2)c1 (stereo unspecified)	nt	-5.0
56	O=C(CSc1n[nH]c(=O)n1-c1cccc(C(F)(F)F)c1)N1CCC(C(F)(F)F)CC1	-0.5	3.5
57	CCn1c(C)nc2c(=O)oc3ccccc3c21	-1.0	2.6
58	C[C@@H]1CN([C@H](C)CO)C(=O)c2cc(NC(=O)Nc3ccc(F)cc3)ccc2O[C@H]1CN(C)Cc1ccc(Oc2ccccc2)cc1	0.7	-2.0
59	C[C@H]1CN([C@@H](C)CO)C(=O)c2cccc(NC(=O)C3CCOCC3)c2O[C@@H]1CN(C)C(=O)Nc1ccc(F)cc1	nt	-9.1
60	CCN(C(=O)c1ccc(C(=O)N(CC)c2ccccc2)cc1)c1ccccc1	1.0	3.5
61	COc1ccc(OC)c(CCNC(=O)Cn2cccc2C(=O)c2ccccc2)c1	1.0	5.5
62	CC1=C(C(N)=O)C(c2ccco2)C(C(N)=O)=C(C)N1	0.8	-3.6
63	C[C@@H]1CN([C@@H](C)CO)C(=O)c2cc(NS(=O)(=O)c3ccccc3)ccc2O[C@@H]1CN(C)S(C)(=O)=O	0.6	1.9
64	Cc1ccc(CCC2C3=C(CCCC3=O)OC3=C2C(=O)CCC3)cc1	-0.5	-8.2
65	C[C@@H]1CN([C@H](C)CO)C(=O)c2cc(NC(=O)Nc3ccc(C(F)(F)F)cc3)ccc2O[C@H]1CN(C)S(C)(=O)=O	0.4	4.0
66	CC1(C)c2ccccc2N(CCC(N)=O)C12C=Cc1c(ccc3ccccc13)O2 (stereo unspecified)	1.2	-1.6
67	CCCN(CCC)C(=O)CSc1nc2ccsc2c(=O)n1-c1ccc(Br)cc1	-0.4	-1.1
68	CC(=O)Nc1cc(C(=O)NCCc2ccc(C)cc2)ccc1Sc1ccc(C)cc1	-0.4	-1.2
69	Cc1noc(C)c1NC(=O)Nc1cccc2c1O[C@H](CN(C)S(=O)(=O)c1ccccc1)[C@H](C)CN([C@@H](C)CO)C2=O	nt	-9.1
70	C[C@H](CO)N1C[C@H](C)[C@H](CN(C)C(=O)Nc2ccc3c(c2)OCO3)Oc2c(NS(=O)(=O)c3cccs3)cccc2C1=O	nt	-0.9
71	Cc1ccc2oc(=O)c3cnn(CC(=O)NC(C)C)c3c2c1	nt	9.6
72	CCc1ccc(Sc2cc(C(=O)NCc3cccnc3)c3ccccc3n2)cc1	-0.7	2.1
73	C[C@H]1CN([C@@H](C)CO)C(=O)c2cc(N(C)C)ccc2O[C@H]1CN(C)Cc1ccc(C(=O)O)cc1	0.2	0.6
74	Cc1ccc(S(=O)(=O)Nc2ccc3c(c2)C(=O)N([C@H](C)CO)C[C@@H](C)[C@H](CN(C)C(=O)Nc2cccc4ccccc24)O3)cc1	-0.6	4.0
75	N#C/C(=C\Nc1ccc(F)c(Cl)c1)S(=O)(=O)Cc1ccco1	-0.3	-1.6
76	C[C@H]1CN([C@@H](C)CO)C(=O)c2cccc(NS(=O)(=O)c3cn(C)cn3)c2O[C@@H]1CN(C)CC1CC1	nt	0.6
77	CCCC1=NN(C(=O)/C=C/c2cccs2)C(=O)C1Cc1c(F)cccc1Cl (stereo unspecified)	-1.3	-16.7
78	COC(=O)C1=C(C)NC(C)=C([N+](=O)[O-])C1c1ccccc1C(F)(F)F (stereo unspecified)	0.1	-8.4
79	O=C(O)C1C2C=CC(C2)C1C(=O)Nc1nc2ccc(Br)cc2s1 (stereo unspecified)	-0.6	2.3
80	COc1ccc(-c2nc3ccc4ccccc4c3c3c2CCCC3)cc1	0.3	-4.1
81	CC1CN(S(=O)(=O)c2cccc(C(=O)O)c2)CC(C)O1 (stereo unspecified)	0.2	-2.6
82	COc1ccccc1N(C(=O)NCc1ccccc1)C1=NCC(C)S1 (stereo unspecified)	0.1	0.6
83	C[C@H]1CN([C@@H](C)CO)C(=O)c2cc(NS(=O)(=O)c3ccccc3)ccc2O[C@@H]1CN(C)C(=O)Nc1cccc2ccccc12	0.6	0.9
84	O=C1C(c2c(O)[nH]c3ccccc23)=Nc2ccccc21	-2.3	5.9
85	O=C(CN1C(=O)CCc2ccccc21)NC1CCCc2ccccc21 (stereo unspecified)	-1.1	-1.1
86	CCN(Cc1ccccc1)C(=O)CSC1=Nc2ccccc2C2=NC(c3ccccc3)C(=O)N12 (stereo unspecified)	nt	-3.2
87	C[C@H](CO)N1C[C@H](C)[C@H](CN(C)Cc2ccc(-c3ccccc3)cc2)Oc2c(NS(=O)(=O)c3ccc(F)cc3)cccc2C1=O	nt	0.6
88	Cc1noc(C)c1NC(=O)Nc1ccc2c(c1)C(=O)N([C@@H](C)CO)C[C@@H](C)[C@H](CN(C)Cc1ccc(Cl)c(Cl)c1)O2	0.1	0.5
89	C[C@H]1CN([C@@H](C)CO)C(=O)c2cccc(NC(=O)c3cnccn3)c2O[C@@H]1CN(C)C(=O)Nc1ccccc1	nt	-1.7

Source: PubChem BioAssay

An excerpt; the hit share may differ from the screen's.
